Screening data as filed in PubChem.
MT1-MMP reporter: MT1-MMP gene expression reporter suppression – cell-based, luciferase reporter, luminescence (AID 618) | MT1-MMP promoter luciferase reporter cells, luminescence | calls from a first round at 10 µM; hits with a dose series show EC50 in µM | hit rate 0.62% among 87,000;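 active = over half of the reporter light lost at 10 µM or EC50 under 50 µM; inactive = the rest and hits that failed the dose series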;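 note: actives suppress MT1-MMP promoter-driven transcription so potencies describe inhibitors; HT1080 fibrosarcoma cells; overnight exposure; toxic or luciferase-blocking compounds were not removed from the actives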
The depositor's hits bear a star; i = inactive. Not all compounds are listed, so the mix of outcomes need not match the whole.

SMILES	MT1-MMP reporter
CCOC(=O)C1=C(C)N(CCCC(=O)O)C(=O)NC1c1ccc(Br)cc1 (configuration not stated)	i
CCOC(=O)C1=C(C)N(CCCC(=O)O)C(=O)NC1c1cc2ccccc2c2ccccc12 (configuration not stated)	i
COc1ccc(Cl)cc1NC(=O)NC1CCCCC1	i
COc1ccc(NC(=O)CC2C(=O)N(c3cccc(OC)c3)C(=O)N2CCC(C)C)cc1 (configuration not stated)	i
COc1ccc(-c2cc(C(F)(F)F)nc(N3CCN(C)CC3)n2)cc1OC	i
CCc1c(C)nc(SCC(=O)c2cccs2)c(C#N)c1C	i
O=C(Nc1ccc(N2CCN(C(=O)c3ccc(Cl)cc3)CC2)cc1)c1cc2ccccc2o1	i
CCN1C(=O)CSC1=NC12CC3CC(CC(C3)C1)C2	i
O=C(CCc1nc2cccnc2n1Cc1ccccc1)NCCc1ccc(Cl)cc1	i
CCOC(=O)C1=C(C)N(CCCC(=O)O)C(=O)NC1c1ccccc1OC(=O)c1cccc(I)c1 (configuration not stated)	i
O=C(c1cccc(N2CCCC2=O)c1)N1CCOCC1	i
CCN1CCN(Cc2ccc(OCc3ccccc3)c(OC)c2)CC1	i
COc1ccc(OC(=O)c2cccc([N+](=O)[O-])c2)c(C(=O)/C=C/c2cccs2)c1	i
CC(C)Oc1ccc(C(CC(=O)NCc2ccco2)c2ccccc2)cc1 (configuration not stated)	i
O=C(CCCn1c(=S)[nH]c2ccccc2c1=O)N1CCN(c2cccc(Cl)c2)CC1	i
O=C(NCc1ccco1)c1ccccc1NS(=O)(=O)c1ccc(Br)s1	i
COc1ccc(Nc2ncc(C(=O)N3CCC(C(N)=O)CC3)c3ccccc23)cc1	i
N#Cc1ccc(C23CC4(C2)[C@H](CN(Cc2cccnc2)[C@@H]4c2ccccc2)C3c2ccccc2)cc1 (some centres not stated)	i
Cc1ccc(C)c(C(=O)O/N=C(\N)c2ccc(Br)cc2)c1	i
CC1C(=O)Nc2ccccc2N1C(=O)C1CC1 (configuration not stated)	i
CC1=C(C(=O)OCc2ccccc2)C(c2cccc3ccccc23)NC(=O)N1CCCC(=O)O (configuration not stated)	i
C/C(=C\C(=O)c1ccccc1)Nc1ccc(O)cc1	i
CCN1C(=O)N(CC)C2NC(=S)NC21 (configuration not stated)	i
CCCc1cc2c(n1Cc1cc(F)cc(F)c1)C(C)C1CN(C(=O)c3ccccc3)C(C)(C(=O)OC)C21 (configuration not stated)	i
O=C(CCn1c(=O)[nH]c2ccsc2c1=O)N(CCc1ccccc1)Cc1ccccc1	i
O=C(c1ccccc1)N1CCN(C2c3cccc4cccc(c34)C2NS(=O)(=O)c2ccccc2)CC1 (configuration not stated)	i
O=C(NCCN1CCOCC1)C1CCC(=O)N1Cc1ccc(F)cc1 (configuration not stated)	i
CCOC(=O)N1CCN(C(=O)C2CCN(S(=O)(=O)c3ccc(Cl)cc3)CC2)CC1	i
CCOC(=O)C1=C(C)N(Cc2ccccc2)C(=O)NC1c1ccc(OC)cc1 (configuration not stated)	i
COc1cc2c(cc1OC)C(c1ccc(-c3ccccc3Cl)o1)=NCC2	i
Cc1ccc(CN(c2ccc(C(=O)NCc3ccc4c(c3)OCO4)cc2)S(C)(=O)=O)cc1	i
COc1ccc(OC)c(NC(=O)c2cnn(-c3ccccc3Cl)c2NC(=O)c2ccco2)c1	i
CCN1/C(=C\C(C)=O)Sc2ccc(OC)cc21	i
C[C@@H](C(=O)Nc1ccc2ccccc2c1)[C@@H]1C[C@@]1(C)[C@@H](NC(=O)Oc1ccc(F)cc1)c1ccccc1	i
Cc1ccc(C)c(NC(=S)N2CCC(N(C)CC3CCCO3)CC2)c1 (configuration not stated)	i
N#Cc1ccc(C23CC4(C2)[C@H](CN(P(=O)(c2ccccc2)c2ccccc2)[C@@H]4c2ccccc2)C3c2ccc(Cl)nc2)cc1 (some centres not stated)	i
COC(=O)c1cc(OC)ccc1-c1ccc(OC)cc1	i
CCCCN(C)C(=O)CSc1nc(NCc2ccc(OC)cc2)c2ccccc2n1	i
CC(C)c1ccc(CN2CC(C(=O)O)CC2=O)cc1 (configuration not stated)	i
O=C(CCCCCN1C(=O)CCC1=O)Nc1ccc(Cl)c(C(F)(F)F)c1	i
CC1CCN(C(=O)CSc2nc3ccccc3s2)CC1	i
CCC(C)(C(=O)NC1CCCCC1)N(C)C(=O)c1ccc2c(c1)OCO2 (configuration not stated)	i
CCC(C)NC(=O)CSc1nc2ccsc2c(=O)n1NC(=O)c1ccccc1 (configuration not stated)	i
COCCCNC(=O)c1cccn2c(=O)c3cc4ccccc4cc3nc12	i
Cc1ccc(CN(c2ccc(C(=O)NCc3cccnc3)cc2)S(C)(=O)=O)cc1	i
CCCCNC(=O)c1ccc(S(=O)(=O)c2ccc(Cl)cc2)c(NC(C)=O)c1	i
CC(C)Cn1c(N)c(C(=O)COC(=O)c2cc(C(F)(F)F)nc3c(C(F)(F)F)cccc23)c(=O)n(C)c1=O	i
COc1ccc2cc3cc(C(=O)Nc4cc(OC)c(OC)c(OC)c4)oc3nc2c1	i
O=C(Nc1nccs1)c1cn(-c2ccccc2)nc1-c1ccccc1	i
Cc1ccc(CO/N=C\Cc2snc(Sc3ncc(C(F)(F)F)cc3Cl)c2C#N)cc1	i
CCn1ncc(C2=NOC(C(=O)NCC(C)C)C2)c1C (configuration not stated)	i
Cc1ccc(S(=O)(=O)/N=C(\CN2CCOCC2)N2CCOCC2)cc1	i
COC(=O)Cc1ccc(NC(=O)c2ccc(C(C)(C)C)cc2)cc1	0.31µM*
COc1ccc(NC(=O)NCc2ccncc2)cc1	i
CCOC(=O)CC(=O)CSc1nc2ccccc2c(=O)n1-c1ccc(C(=O)NCCOC)cc1	i
CNCc1ccccc1OCC(=O)Nc1ccccc1OC	i
Cc1cc(Cl)cc(Br)c1OCCCN1C(=O)NC(C)(C)C1=O	i
C[C@@H](C(=O)NCc1ccc(S(C)(=O)=O)cc1)[C@@H]1C[C@@]1(C)[C@@H](NC(=O)OCc1ccccc1)c1ccccc1	i
CC1CCCC(NC(=O)Nc2cccs2)C1C (configuration not stated)	i
CC(=O)N1CC=CC1(CC(C)C)C(=O)NCc1ccccn1 (configuration not stated)	i
Next records
SMILES	MT1-MMP reporter
CN(c1ccc(C(=O)NC2CC3CCC2C3)cc1)S(C)(=O)=O (configuration not stated)	i
COC(=O)[C@@]1(Cc2ccc(OC)cc2)[C@H]2c3cc(C(=O)N4CCCC4)n(Cc4ccsc4Br)c3C[C@H]2CN1C(=O)c1ccccc1	i
C=CCn1c(SCCOc2ccc(OC)cc2)nnc1C(C)NC(=O)Cc1ccc(OC)cc1 (configuration not stated)	i
Cc1cc(C)cc(NC(=S)NCc2cccn2C)c1	i
COc1cc(C)nc2nc(SCc3ccccc3)nn12	i
NNC(=O)Cn1c(SCc2ccccc2)nc2ccccc21	i
COc1ccccc1-c1cc(C(=O)NCCc2ccccc2)no1	i
CCn1c(C)[n+](CC(O)COCC2CC=CCC2)c2ccccc21 (configuration not stated)	i
OCCN(Cc1ccccc1)Cc1cccc(Cl)c1Cl	i
O=C1CSC(c2cn(-c3ccccc3)nc2-c2cc3ccccc3oc2=O)N1Cc1ccccc1 (configuration not stated)	i
O=C(CS(=O)c1ccc(C(F)(F)F)cc1[N+](=O)[O-])Oc1ccc(Cl)cc1 (configuration not stated)	i
COc1cc(C(=O)Oc2cccc(C=O)c2)cc(OC)c1OC	i
O=C(O)CCCNC(=O)Nc1ccccc1	i
CCOc1ccccc1NC(=O)CSCC(=O)Nc1ccccc1	i
Cc1nc2ncnn2c(C)c1CCC(=O)N1CCCCC1	i
CCOC(=O)c1sc(NC(=O)CN(CC)CC)c(C(=O)OCC)c1C	i
CCCC/C=C/C(NC(=O)c1ccc(C(F)(F)F)cc1)c1ccccc1 (configuration not stated)	i
COC(=O)c1ccc(C23CC4(C2)[C@H](CN(Cc2ccc(C(F)(F)F)cc2)[C@@H]4c2ccccc2)C3c2ccc(Cl)nc2)cc1 (some centres not stated)	i
CCCC/C=C/C(NC(=O)C(C)(C)C)c1ccccc1 (configuration not stated)	i
CCOC(=O)N1CCN(C(=O)c2ccc(NC(C)=O)cc2)CC1	i

Structural class, those above containing a Cl atom
SMILES	MT1-MMP reporter
COc1ccc(Cl)cc1NC(=O)NC1CCCCC1	i
O=C(Nc1ccc(N2CCN(C(=O)c3ccc(Cl)cc3)CC2)cc1)c1cc2ccccc2o1	i
O=C(CCc1nc2cccnc2n1Cc1ccccc1)NCCc1ccc(Cl)cc1	i
O=C(CCCn1c(=S)[nH]c2ccccc2c1=O)N1CCN(c2cccc(Cl)c2)CC1	i
CCOC(=O)N1CCN(C(=O)C2CCN(S(=O)(=O)c3ccc(Cl)cc3)CC2)CC1	i
COc1cc2c(cc1OC)C(c1ccc(-c3ccccc3Cl)o1)=NCC2	i
COc1ccc(OC)c(NC(=O)c2cnn(-c3ccccc3Cl)c2NC(=O)c2ccco2)c1	i
N#Cc1ccc(C23CC4(C2)[C@H](CN(P(=O)(c2ccccc2)c2ccccc2)[C@@H]4c2ccccc2)C3c2ccc(Cl)nc2)cc1 (some centres not stated)	i
O=C(CCCCCN1C(=O)CCC1=O)Nc1ccc(Cl)c(C(F)(F)F)c1	i
CCCCNC(=O)c1ccc(S(=O)(=O)c2ccc(Cl)cc2)c(NC(C)=O)c1	i
Cc1ccc(CO/N=C\Cc2snc(Sc3ncc(C(F)(F)F)cc3Cl)c2C#N)cc1	i
Cc1cc(Cl)cc(Br)c1OCCCN1C(=O)NC(C)(C)C1=O	i
OCCN(Cc1ccccc1)Cc1cccc(Cl)c1Cl	i
O=C(CS(=O)c1ccc(C(F)(F)F)cc1[N+](=O)[O-])Oc1ccc(Cl)cc1 (configuration not stated)	i
COC(=O)c1ccc(C23CC4(C2)[C@H](CN(Cc2ccc(C(F)(F)F)cc2)[C@@H]4c2ccccc2)C3c2ccc(Cl)nc2)cc1 (some centres not stated)	i

(cont.)
SMILES	MT1-MMP reporter
OCCN(Cc1ccccc1)Cc1ccc(Cl)cc1Cl	i
Cc1ccc(-n2nc(C(=O)O)cc2-c2ccccc2)cc1	i
Cc1cc(NS(=O)(=O)c2ccc(NC(=O)c3cc4ccccc4o3)cc2)nc(C)n1	i
CCOC(=O)C1CCN(C(=O)CCN2C(=O)C3C4C=CC(C4)C3C2=O)CC1 (configuration not stated)	i
O=C(CN1CCCCCC1)Nc1cccc(Br)c1	i
COC(=O)c1cccc(C23CC4(C2)[C@H](CN(Cc2ccc(-c5ccccc5)cc2)[C@@H]4c2ccccc2)C3c2ccc(Cl)nc2)c1 (some centres not stated)	i
COc1ccc(-n2c(SCC(=O)NCCC(C)C)nc3ccsc3c2=O)cc1	i
Cc1ccn2c(C(=O)c3ccc(Cl)cc3)cnc2c1	i
COc1ccc(NC(=O)CCc2c(C)nc3nc(C)nn3c2C)cc1	i
CCOC(=O)N1CCC(N2Cc3cccc(C(=O)Nc4ccc(CC)cc4)c3C2=O)CC1	i
O=C1C2C3C=CC(C3)C2C(=O)N1c1ccc(Cc2ccncc2)cc1 (configuration not stated)	i
CCCCNC(=O)C1c2ccccc2C(=O)N(c2ccc(OC)cc2)C1c1ccc(OC)cc1 (configuration not stated)	i
C=CCNC(=O)C(=O)c1cccn1-c1ccsc1C(=O)OC	i
CCCCNc1nc(-c2ccccc2)nc(-n2ccnc2)n1	i
CCC1=C(OC(=O)N(CC)CC)N2C(=O)OC(=NCC3CC3)[C@]2(C)[C@H]2C1=CC[C@H]1C(=O)N(CC(=O)OC)C(=O)[C@H]12	i
CC(C)c1ccc(-c2c(C#N)c(N)nc(SCC(=O)N3CCCCC3)c2C#N)cc1	i
N#CC(c1ccccc1)c1ccc2c(C(F)(F)F)cc(C(F)(F)F)nc2n1 (configuration not stated)	i
CC1CC(C)CN(CCCNC(=O)c2csc3c2CCCC3)C1 (configuration not stated)	i
O=C(Nc1nccs1)C1Cc2ccccc2CN1S(=O)(=O)c1ccc(F)cc1 (configuration not stated)	i
COC(=O)[C@@H]1C[C@@]2(O)[C@@H](O)[C@@H](O)[C@@H](O)C[C@H]2N1Cc1cc(OC)cc(OC)c1	i
O=C(Nc1ccccc1C(=O)O)c1ccc(Br)o1	i
Cc1ccc(S(=O)(=O)Nc2cc(C(C)C)c(O)cc2C)cc1	i
COc1nc(-c2ccncc2)nc2ccccc12	i
C[C@]1(C(=O)O)C=C[C@@H](Cc2ccccc2)N1C(=O)c1ccccc1	i
CC(C)CCN(C(=O)Nc1ccccc1)C(C)c1cccs1 (configuration not stated)	i

Some of these compounds in order of count of non-hydrogen atoms, smallest number first:
SMILES	MT1-MMP reporter
COc1nc(-c2ccncc2)nc2ccccc12	i
Cc1ccc(S(=O)(=O)Nc2cc(C(C)C)c(O)cc2C)cc1	i
COC(=O)[C@@H]1C[C@@]2(O)[C@@H](O)[C@@H](O)[C@@H](O)C[C@H]2N1Cc1cc(OC)cc(OC)c1	i

As a working copy, some entries already given:
SMILES	MT1-MMP reporter
C[C@]1(C(=O)O)C=C[C@@H](Cc2ccccc2)N1C(=O)c1ccccc1	i
CC(C)CCN(C(=O)Nc1ccccc1)C(C)c1cccs1 (configuration not stated)	i
